Sa helicase inh = blocks Staphylococcus aureus DNA helicase; purified S. aureus helicase, fluorescence unwinding assay; about half of the hits fall short of the stated cut; inhibition, %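 (tested at about 80 µM)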; 120,000 tested, 0.05% active;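 active = both duplicates at 50% or more, or one of them with a favoured structure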;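 also: 0% = mean of negative control wells and 100% = mean of positive control wells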
MgrA-DNA mod = S. aureus MgrA-DNA binding modulation. 84,000 tested, 0.13% active. inhibition, %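 (about 10 µg/mL by stock and volumes)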. fluorescence polarization. AID 602314;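 active = above 50% in either of two replicates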;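 also: 0% = protein plus DNA without compound and 100% = DNA alone without protein; higher means less MgrA bound to DNA so lower polarization; one replicate is shown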
Numbers without * were called inactive; / = no result given; & = joins results of further samples.

SMILES	Sa helicase inh	MgrA-DNA mod
Cc1ccc(CS(=O)Cc2ccc(C(=O)N3CCN(c4ccccc4)CC3)o2)cc1 (stereo unspecified)	13	/
C=CCOc1ccccc1CNc1ccc(C)cc1	8	-4.6
O=C(Nc1cccnc1)c1c2c(nc3ccccc13)C(=O)N(C1CCCCC1)C2	18	/
CCCCC1CCC(C(=O)O)CC1 (stereo unspecified)	14	-1.2
O=C(Nc1nc(-c2ccc3c(c2)CCN3C(=O)C2CCCCC2)cs1)c1ccco1	2	3.1
COc1ccc(OCC2c3cc(OC)c(OC)cc3CCN2C(=O)C(C)C)cc1 (stereo unspecified)	-1	-1.1
CCN1C(=O)NC(c2ccc(Cl)cc2)C2=C1CCCC2=O (stereo unspecified)	5	1.1
O=c1cc(-c2ccc(F)cc2)c2c([nH]1)Oc1c(nc(-c3ccccc3)[nH]c1=O)O2	12	11
Cc1ccc(-c2ccc(C)c(N)c2C)c(C)c1N	-20	0.3
O=c1cc(-c2ccc(O)cc2)oc2cc(O)cc(O)c12	/	1.2&5.3
CN(C(=O)c1ccccc1)C1CCS(=O)(=O)C1 (stereo unspecified)	5	-2.2
COC(=O)C1=C(C)N(Cc2cccnc2)C(=O)/C1=C\c1ccccc1C(F)(F)F	1	0.0
O=C1CCC2CC1CCC2=O	-12	/
Cc1ccc(-c2nc(C=Nc3ccccc3)c(O)o2)cc1	0	-1.9
Cc1ccc(SC(C)c2nc(-c3ccncc3)no2)cc1 (stereo unspecified)	21	-0.9
CCOC(=O)c1csc(-c2ccc(Cl)cc2)n1	/	-0.8
COC(=O)C1=C(NC(=O)c2ccc(S(=O)(=O)N3CCCCC3)cc2)CCS1	18	/
NNc1nc2cc3c(cc2s1)OCO3	11	/
Cc1ccc(CNC(=S)N2CCOCC2)cc1	6	-2.6
O=C1CSC(c2ccccn2)N1Cc1cn2ccccc2n1 (stereo unspecified)	-6	1.2
C=CCN1C(=O)C(C(=O)Nc2ccccc2)C2c3ccccc3OC13CCCCC23 (stereo unspecified)	5	/
CCOC(=O)c1cncc(C#Cc2ccccc2)c1	/	-0.1
Cc1c(C)c(C)c(C(=O)Cc2ccccc2)c(C)c1C	/	0.0
N/C(=N\O)c1c(Cl)cccc1Cl	8	/
O=C(OCC(F)(F)C(F)F)c1ccc2ccccc2c1	-3	1.9
CC1CC(C)CN(C(=O)CSc2nc3cc(S(=O)(=O)N(C)C)ccc3o2)C1 (stereo unspecified)	6	/
Cc1nn(CC(C)C)c(Cl)c1CNCCC(=O)N1CCCC1	-8	/
O=C(CN1CCC(N2CCCCC2)CC1)NC12CC3CC(CC(C3)C1)C2	3	8.7
CC(N)c1ccc(-c2ccccc2)cc1 (stereo unspecified)	-11	/
O=C(Cn1nc(-c2ccccc2)c2ccccc2c1=O)N1CCOCC1	-11	/
Cc1ccc(NC(=O)CN2CCSC2=O)cc1	-10	/
C/C(=N\O)c1ccc2c(c1)Cc1ccccc1-2	10	-2.3
Cc1cc(Cc2ccc(Cl)cc2)c(=O)[nH]n1	/	0.6
CN(C)c1cc(Nc2ccc(Cl)cc2)c2c3c(onc13)-c1ccccc1C2=O	-4	-0.6
O=C1NC(=S)N/C1=C/c1cc(I)cc(I)c1O	/	4.9
COC(=O)C1Cc2ccccc2CN1C1CC(=O)N(c2cc(C)ccc2C)C1=O (stereo unspecified)	-1	/
O=C(O)c1ccccc1C(=O)NCC1CCCO1 (stereo unspecified)	8	-2.0
CN1CCN(c2ccccc2NC(=O)C2c3ccccc3C(=O)N(C)C2c2cn(C)c3ccccc23)CC1 (stereo unspecified)	0	/
O=C1Nc2ccccc2S/C1=C/Nc1ccccc1Cl	/	-0.7
COc1nc(Nc2ccc3c(c2)OCO3)nc(OC)n1	6	0.9
O=C(CN1N=C(c2ccccc2)CCC1=O)NC1CC1	-16	0.5
COc1ccc(CN2CCN(C3=NS(=O)(=O)C(c4ccc(Cl)cc4)=C3C)CC2)c(OC)c1OC	25	/
CC(=O)Nc1c2c(nn1-c1ccc(Cl)cc1)CS(=O)(=O)C2	-4	/
O=C(NCCN1CCCCC1)c1ccc(/C=N/O)nc1	1	0.5
Cc1ccc(C2=NNC(c3cccs3)S2)cc1 (stereo unspecified)	-18	8.0
Cc1cccc(N(C)S(=O)(=O)c2ccc3c(c2)CCC(=O)N3)c1	-15	1.0
O=C(Cc1nc(-c2cccs2)no1)Nc1ccc(F)cc1	21	/
COc1cc(OC)c(NC(C)C(=O)Nc2cccc(C#N)c2)cc1Cl (stereo unspecified)	-13	/
CCC(Sc1ccc(Cl)cc1)C(=O)Nc1nnc(-c2ccccc2)s1 (stereo unspecified)	0	/
COC(=O)c1cc2c(C)nn(C)c2s1	/	1.3
CC(COc1ccc2c(c1)OCO2)NC(=O)Cc1n[nH]c(=O)c2ccccc12 (stereo unspecified)	-14	/
O=C(Sc1ccc(Cl)cc1)N1CCOCC1	/	-2.5
Cc1cc2c3c(c1)c(O)cc(=O)n3CCC2	/	-0.9
OCCSc1nnc2c(n1)[nH]c1ccccc12	2	/
O=C(Cn1cc(/C=C2/SC(=O)NC2=O)c2ccccc21)Nc1ccccc1	21	/
CCN(CC)S(=O)(=O)c1ccc(NC(=O)COC(=O)C2=NNC(=O)CC2)cc1	-14	/
CC(=O)NCc1ccc(C(=O)CSc2nnc(C3COc4ccccc4O3)n2C)cc1 (stereo unspecified)	5	/
CC1CCN(CCC(=O)Nc2sc3c(c2C#N)CCCC3)CC1	16	/
O=C(NCCSCc1ccco1)c1cnn(-c2ccccc2)c1C(F)(F)F	/	-2.2
Nc1nc(SCC(=O)N2CC(=O)Nc3ccccc32)n[nH]1	9	/
Continuation:
SMILES	Sa helicase inh	MgrA-DNA mod
O=C(c1cccc2c1-c1ccccc1C2)N1CCOCC1	/	-0.1
CCCn1c(N)c(C(=O)CN(C)Cc2ccc(CC)cc2)c(=O)n(C)c1=O	-17	/
Cc1ccc(-c2nnc(Nc3ccc(S(N)(=O)=O)cc3)c3ccccc23)cc1S(N)(=O)=O	13	-3.2
CC(C)OC(=O)CCC1(C(=O)O)CCC(=O)NC1 (stereo unspecified)	1	-0.2
Cc1ccc(S(=O)(=O)CCNC(=O)c2c(-c3c(Cl)cccc3Cl)noc2C)cc1	/	-2.7
C=CCn1c(SC(C)C(N)=O)nnc1C1CCCCC1 (stereo unspecified)	-4	/
COC(=O)C1(C)Cc2ccccc2C(=O)O1 (stereo unspecified)	1	/
CC1CCCC(C)N1C(=O)CSCc1ccco1 (stereo unspecified)	14	3.9
O=C(OCCn1ccnc1)c1ccc(-c2ccccc2)cc1	9	/
O=C(NCCN1CCOCC1)c1nn2c(C(F)(F)F)cc(-c3ccccc3)nc2c1Cl	/	1.4
O=C1NC(=O)N(CCC2=CCCCC2)C(=O)/C1=C\c1cc2c3c(c1)CCCN3CCC2	-42	7.3
C=CCOC(=O)c1sc(SC)c2c1CC(C)(C)CC2=O	/	2.2
CN(C)/C=C/c1cc2c(cn1)C(=O)c1ccccc1-2	-39	9.8
C[C@H](CCC(=O)O)[C@H]1CC[C@H]2[C@@H]3CC[C@@H]4C[C@H](O)CC[C@]4(C)[C@H]3CC[C@]12C	/	-0.2
CCOc1ccc2nc(SCc3nnc(-c4cccs4)o3)sc2c1	-8	/
Cc1ccc(C2=C/C(=C\c3ccccc3C)C(=O)O2)cc1	-8	4.3
CCC(=O)N1CCc2cc(S(=O)(=O)CCC(=O)O)ccc21	9	/
CC(C)n1c(NCc2ccccc2)nc2c1c(=O)[nH]c(=O)n2C	15	/
CSC1=NCN(Cc2ccccc2)CN1	/	0.9
Cc1cc(C)nc(SCC(=O)N(c2ccccc2)C(C)C)n1	26	2.5
O=C1/C(=C/c2cccs2)CCSc2ccccc21	/	-0.1
COc1ccc(N=Cc2cn(-c3ccccc3)nc2-c2cc3ccccc3o2)cc1	-4	/
CCC(C)NC(=O)c1cc(C2CC2)on1 (stereo unspecified)	7	5.2
Cc1cccc(C2CC(=O)NC3=C2C(=O)CC(c2cccs2)C3)c1 (stereo unspecified)	-3	0.4

For convenience, some entries already given.
SMILES	Sa helicase inh	MgrA-DNA mod
Cc1ccc(-c2nnc(Nc3ccc(S(N)(=O)=O)cc3)c3ccccc23)cc1S(N)(=O)=O	13	-3.2
CC(C)OC(=O)CCC1(C(=O)O)CCC(=O)NC1 (stereo unspecified)	1	-0.2
Cc1ccc(S(=O)(=O)CCNC(=O)c2c(-c3c(Cl)cccc3Cl)noc2C)cc1	/	-2.7
C=CCn1c(SC(C)C(N)=O)nnc1C1CCCCC1 (stereo unspecified)	-4	/
COC(=O)C1(C)Cc2ccccc2C(=O)O1 (stereo unspecified)	1	/
CC1CCCC(C)N1C(=O)CSCc1ccco1 (stereo unspecified)	14	3.9
O=C(OCCn1ccnc1)c1ccc(-c2ccccc2)cc1	9	/
O=C(NCCN1CCOCC1)c1nn2c(C(F)(F)F)cc(-c3ccccc3)nc2c1Cl	/	1.4
O=C1NC(=O)N(CCC2=CCCCC2)C(=O)/C1=C\c1cc2c3c(c1)CCCN3CCC2	-42	7.3
C=CCOC(=O)c1sc(SC)c2c1CC(C)(C)CC2=O	/	2.2
CN(C)/C=C/c1cc2c(cn1)C(=O)c1ccccc1-2	-39	9.8
C[C@H](CCC(=O)O)[C@H]1CC[C@H]2[C@@H]3CC[C@@H]4C[C@H](O)CC[C@]4(C)[C@H]3CC[C@]12C	/	-0.2
CCOc1ccc2nc(SCc3nnc(-c4cccs4)o3)sc2c1	-8	/
Cc1ccc(C2=C/C(=C\c3ccccc3C)C(=O)O2)cc1	-8	4.3
CCC(=O)N1CCc2cc(S(=O)(=O)CCC(=O)O)ccc21	9	/
CC(C)n1c(NCc2ccccc2)nc2c1c(=O)[nH]c(=O)n2C	15	/
CSC1=NCN(Cc2ccccc2)CN1	/	0.9
Cc1cc(C)nc(SCC(=O)N(c2ccccc2)C(C)C)n1	26	2.5
O=C1/C(=C/c2cccs2)CCSc2ccccc21	/	-0.1
COc1ccc(N=Cc2cn(-c3ccccc3)nc2-c2cc3ccccc3o2)cc1	-4	/
CCC(C)NC(=O)c1cc(C2CC2)on1 (stereo unspecified)	7	5.2
Cc1cccc(C2CC(=O)NC3=C2C(=O)CC(c2cccs2)C3)c1 (stereo unspecified)	-3	0.4

Additional compounds.
SMILES	Sa helicase inh	MgrA-DNA mod
CCN(CC)C(=O)C1CCC(=O)N(c2ccc(OC)cc2)C1c1ccc(OC)c(OC)c1 (stereo unspecified)	10	/
COc1ccc(Cc2nnc(SCC(=O)Nc3ccc(F)cc3)o2)cc1	11	/
N#C/C(=C\c1ccncc1)c1ccc(NC(N)=O)cc1	/	-2.2
COc1cccc(NS(=O)(=O)c2cc(OC)ccc2OC)c1	-27	/
COc1ccc(CCN=Cc2ccc3c(c2)OCO3)cc1OC	/	0.5
O=C(COc1ccc(Cl)cc1)NCc1nnc(SCC(=O)Nc2cccc(F)c2)o1	7	0.2
CC(C)N(Cc1ccccc1)C(=O)CSc1nnc(-c2ccccc2Br)o1	-11	/
COC(=O)c1ccc2c(c1)NC(=O)C(N(CC(C)C)CC(C)C)S2 (stereo unspecified)	-2	/
CCOC(=O)c1cccc(NC(=O)Cn2nnc(-c3ccc(C)cc3)n2)c1	19	1.8
COC(=O)c1sccc1N(S(=O)(=O)c1ccccc1)S(=O)(=O)c1ccccc1	-4	/
CSc1ccc2c(c1)N(CCC1CCCCN1C)c1ccccc1S2 (stereo unspecified)	/	-2.1&3.8
Cn1c(-c2cccnc2)nc2c1c(=O)[nH]c(=O)n2Cc1ccccc1	-4	/
Cc1[nH]c(=O)[nH]c(=O)c1S(=O)(=O)N(CC(C)C)CC(C)C	18	/
O=C(c1ccc2c(c1)C(=O)N(Cc1ccco1)C2=O)N1CCOCC1	15	-2.1
CCCCS(=O)(=O)NN1C(=O)NC(C)(c2ccccc2)C1=O (stereo unspecified)	12	/
CC1=NN(c2ccccc2)C(c2ccc(OCC(=O)NCCC3=CCCCC3)cc2)C1 (stereo unspecified)	12	-1.5

The list is partial; rates above refer to the full screens.
